Rce1 inhib: yeast Ras-converting enzyme inhibition. yeast membranes, quenched prenylated peptide cleavage fluorescence. calls only. actives 0.27% (n = 290,000);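 active = fall in fluorescence gain of 50% or more versus controls, with final raw signal at or below 3038400; inconclusive = same 50% fall but final raw signal above 3038400; inactive = fall in fluorescence gain under 50%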;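 also: plate controls were neutral control wells for no effect and wells lacking membranes for full effect; tested at 10 µM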
PABP FP inh: PABP-poly(A) binding inhibition; P11940; PABP-poly(A) RNA binding, fluorescence polarization; inhibition, % at 35 µM; actives 1% (n = 290,000); AID 2014;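 active = 50% or more with normal probe brightness, or confirmed in later tests; inconclusive = above 50% with abnormal brightness, or retests that disagree; inactive = below 50% or failed in later tests; about a fifth of its hits are not listed in these tables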;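 also: calls also rest on retests at 20 µM and on dose response follow-up; controls were probe without protein and protein plus probe with vehicle; some compounds called inactive have numbers as strong as hits; many hits fall short of the cut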
Target sequence (P11940 whole entry, looked up): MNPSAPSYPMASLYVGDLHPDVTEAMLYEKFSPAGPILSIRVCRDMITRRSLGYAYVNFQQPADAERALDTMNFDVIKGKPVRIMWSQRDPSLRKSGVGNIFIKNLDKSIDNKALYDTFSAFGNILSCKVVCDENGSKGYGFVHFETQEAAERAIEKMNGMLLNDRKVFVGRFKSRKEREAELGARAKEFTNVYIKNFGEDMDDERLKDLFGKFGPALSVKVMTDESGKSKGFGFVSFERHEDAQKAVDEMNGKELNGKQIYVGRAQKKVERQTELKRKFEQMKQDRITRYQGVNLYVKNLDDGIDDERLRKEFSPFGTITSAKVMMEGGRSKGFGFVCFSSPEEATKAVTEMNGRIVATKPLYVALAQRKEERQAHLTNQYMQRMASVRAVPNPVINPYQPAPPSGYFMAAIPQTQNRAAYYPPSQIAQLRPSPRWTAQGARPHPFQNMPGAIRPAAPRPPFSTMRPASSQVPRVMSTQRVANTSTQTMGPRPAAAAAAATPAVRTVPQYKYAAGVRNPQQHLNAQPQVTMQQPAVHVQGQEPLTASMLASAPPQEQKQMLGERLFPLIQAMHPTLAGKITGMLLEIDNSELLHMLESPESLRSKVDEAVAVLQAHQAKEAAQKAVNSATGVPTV
eIF4H FP inh: inhibitors of RNA binding by human eIF4H; Q15056; eIF4H fluorescence polarization binding assay; inhibition, % at 35 µM; actives 0.94% (n = 290,000); AID 2012;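 active = 50% or more with normal probe brightness, or confirmed in later tests; inconclusive = above 50% with abnormal brightness, or retests that disagree; inactive = below 50% or failed in later tests; about a fifth of its hits are not listed in these tables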;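 also: calls also rest on retests at 20 µM and on dose response follow-up; 0% = protein and probe with vehicle and 100% = probe without protein; strong numbers were not always called active; many hits fall short of the cut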
Yeast UUG start: yeast start codon fidelity modulation. S. cerevisiae UUG-firefly luciferase reporter, luminescence/redox ratio. activity score, % at 18.7 µM. actives 0.13% (n = 350,000). AID 602363;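 active = replicate mean at a twofold rise or more, about +100% in these data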;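 also: firefly luciferase made from a UUG start codon reports start codon fidelity; reporter light over untreated wells divided by growth signal over untreated wells; some hits fall short of that in this replicate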
CSC inhib: cancer stem cell inhibition | cancer stem cell-like cells viability, luminescence | inhibition, % at 7.5 µM | actives 1.1% (n = 300,000) | AID 2717;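 active = mean at 75% or more and at least half the replicates too; inconclusive = mean and replicates disagree; tested in HMLE shEcad cells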;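 also: 0% = median of negative and 100% = median of positive control wells; the first replicate is given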
HIV Env fusion: inhibitors of HIV Env-mediated cell fusion; HeLa-JRFL Env/CEM21 cell fusion, luciferase; inhibition, % at 12.3 µM; actives 1.1% (n = 360,000); AID 651610;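 active = mean replicate inhibition score of at least 50 and every replicate individually at or above 50; inconclusive = only one of the two criteria met; inactive = mean below 50 and not all replicates reaching 50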;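 also: 0% = plate neutral controls and 100% = maraviroc near 300 nM; one replicate is shown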
MT1-MMP act inh: inhibitors of human MT1-MMP activation; P50281; HT1080 RFP-PRO-GFP cells, GFP/RFP ratio fluorescence, overnight; percent of plate control window, DMSO zero; GFP/RFP ratio change, % at 20 µM; actives 0.061% (n = 360,000); AID 651647;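 active = GFP/RFP ratio change of at least 30% with cell ATP level not reduced by more than half and red fluorescence within 50% of control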; also: strong numbers were not always called active
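Compound: 20 µM single dose, 1% DMSO / System: HT1080 RFP-PRO-GFP cells / Controls: DMSO and RFP-L50D-GFP cell wells / Read-out basis: GFP/RFP fluorescence ratio / Schedule: overnight compound exposure at 37 °C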
eIF4H FP inh retest: further read-out of eIF4H FP inh, marked with its call; inhibition, %; compound at 20 µM; confirmation average;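 mean of two retest wells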
PABP FP inh retest: recorded beside PABP FP inh, whose call it bears; inhibition, %; compound at 20 µM; confirmation repeats;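 mean of two retest wells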
MT1-MMP act inh RFP: second read-out of MT1-MMP act inh, no call of its own (marks repeat the call); RFP signal change, %; measured here: RFP expression control read;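 0 = vehicle wells; hits needed this value within 50% of zero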
The depositor's hits bear a star; i = inactive; ? = inconclusive; nt = no result given. Only part of the results is shown; count on the stated rates, not on these rows.

Start of the data: the first 2 entries (preview)
SMILES	Rce1 inhib	PABP FP inh	eIF4H FP inh	Yeast UUG start	CSC inhib	HIV Env fusion	MT1-MMP act inh	MT1-MMP act inh RFP	others
CN1C(=CC=C2C=C(I)C(=O)C(I)=C2)C(C)(C)c2ccccc21	nt	?	?	-8	nt	-9	-13	62
COC(=O)Cc1nnc(Nc2cccc(C)c2)c2ccccc12	i	-1	10	-9	-12	-5	2	2

The listing, repeating the preview:
SMILES	Rce1 inhib	PABP FP inh	eIF4H FP inh	Yeast UUG start	CSC inhib	HIV Env fusion	MT1-MMP act inh	MT1-MMP act inh RFP	others
CN1C(=CC=C2C=C(I)C(=O)C(I)=C2)C(C)(C)c2ccccc21	nt	?	?	-8	nt	-9	-13	62
COC(=O)Cc1nnc(Nc2cccc(C)c2)c2ccccc12	i	-1	10	-9	-12	-5	2	2
CCCCCCCCCCCCN1C/C(=C\C(=O)OCC)c2cc(C(F)(F)F)ccc2S1(=O)=O	i	2	-2	1	40	-31	-4	1
CCCNC(=S)N1CCC(NC(=O)c2ccc(OC)cc2)CC1	i	5	-13	-6	-8	10	-6	-1
O=C(Nc1ccc(S(=O)(=O)NCC2CCCO2)cc1)C1CC(=O)N(c2ccccc2)C1 (stereo unspecified)	i	15	-9	-3	0	-5	5	1
COc1ccccc1-n1cc(C(=O)N2CCCC(CO)(Cc3ccccc3C)C2)cn1 (stereo unspecified)	i	1	-9	8	9	0	1	1
Cc1noc(C)c1S(=O)(=O)N(C)C[C@H]1Oc2ccc(NC(=O)NC3CCCCC3)cc2C(=O)N([C@H](C)CO)C[C@@H]1C	nt	nt	nt	-6	-19	13	0	2
CS(=O)(=O)N(CC(=O)NC1CCCCC1)c1cccc(F)c1	i	-3	-10	-14	-4	-7	0	3
COC(=O)C1CSc2[nH]c(=O)sc2C1c1ccc(O)c(OC)c1 (stereo unspecified)	i	2	1	nt	-3	nt	3	6
C/C(=N/NC(=O)CSc1nc2ccccc2n1C)c1ccco1	i	4	-1	-18	-1	3	1	1
O=C(CN1/C(=C(/O)c2ccccc2)C(=O)c2ccccc2S1(=O)=O)c1ccccc1	i	0	-6	-7	-2	-216	-6	-3
OCC(O)CNC(=S)NC1CCCCC1 (stereo unspecified)	i	-4	4	nt	-13	-6	-1	4
OC(CN1CC=C(/C=C/c2ccc(Br)cc2)CC1)c1ccccc1 (stereo unspecified)	i	6	-8	-13	19	7	5	-3
O=S(=O)(c1ccccc1)N1CCc2ccccc2C1	i	15	-3	-26	-19	-1	-1	-3
N/C(=N\N=C\c1ccc(Br)o1)c1nonc1N	i	11	-9	nt	4	-90	-2	3
CCOc1ccc2c(c1)C(c1ccccc1)=NNC(c1ccccc1)=N2	i	-3	10	-13	nt	32	-3	0
CCn1cc(C(=O)O)c(=O)c2cc(F)c(N3CCN(C(=S)NC(=O)c4cccc(F)c4)CC3)cc21	i	0	11	nt	-6	-6	1	-6
C[n+]1ccc(CC2C(=[N+]([O-])[O-])C=Nc3ncnn32)cc1 (stereo unspecified)	nt	-10	-5	nt	nt	-1	-1	-2
CC(C)(C)c1cc(-c2csc(Nc3ccccc3)[n+]2Cc2ccc(C(=O)O)cc2)cc(C(C)(C)C)c1O	nt	5.2*	52*	-14	60	nt	2	-14	eIF4H FP inh retest=102*;PABP FP inh retest=85*
C=CCNC(=S)N/N=C/c1ccc(C)cc1C	i	85	-12	nt	1	-30	7	-3	eIF4H FP inh retest=21;PABP FP inh retest=35
O=C(CN1C(=O)NC2(CCCCC2)C1=O)Nc1ccc(Cl)cc1	nt	nt	nt	-9	-6	nt	5	4
Cn1c(=O)n(C)c2cc([N+](=O)[O-])c(N3CCN(S(C)(=O)=O)CC3)cc21	i	15	-2	nt	25	-7	8	3
COc1ccc(OC)c(NC(=O)C2(C)CCN2CCc2ccccc2)c1 (stereo unspecified)	nt	nt	nt	-10	nt	20	-4	-11
O=C(COC(=O)C12CC3CC(CC(C3)C1)C2)NCc1ccccc1	nt	nt	nt	2	8	nt	2	6
COc1cc(C(=O)NCC(=O)OCc2cc(=O)oc3c(C)c(C)ccc23)cc(OC)c1OC	i	-2	1	nt	-8	14	0	1
Cc1cccn2c(NC(=O)c3ccccc3F)c(-c3ccccc3)nc12	i	2	13	24	-5	8	-5	-1
CC(=O)Nc1ccc(S(=O)(=O)NCc2csc(-c3cccnc3)n2)cc1	i	2	0	-12	-7	nt	4	1
CCOC(=O)N1CCC(N(CCN(C)C)C(=S)Nc2cccc(C)c2)CC1	i	1	-12	nt	-11	-74	2	1
COc1ccc(OC)c(NC(=O)CSc2nccn2Cc2ccco2)c1	i	-7	-10	-11	3	15	3	-1
Cc1cc(C)c(O)c(-c2cc(C(=O)Nc3ccc(S(=O)(=O)N4CCOCC4)cc3)[nH]n2)c1	i	-2	6	-13	88*	-34	-19	-36
C/C=C(/C)C(=O)O[C@@H]1c2cc3c(c(OC)c2-c2c(cc(OC)c(OC)c2OC)[C@@H](OC(C)=O)[C@@H](C)[C@H]1C)OCO3	i	-2	-1	-11	30	nt	-1	0
COC(=O)c1cc2cc(Cl)ccc2nc1SC	i	-2	-14	nt	-8	11	-2	-1
Cc1oc(-c2ccccc2Cl)nc1CSc1nc2c(c(=O)[nH]1)CCCC2	i	18	7	nt	12	2	4	2
Cc1ccccc1NS(=O)(=O)c1ccc2c(c1)oc(=O)n2C	i	-5	-1	-7	-1	-1	3	1
COc1cc(OC)c2ccc(=O)oc2c1C(CC(=O)N1CCN(c2ccccc2)CC1)c1ccc2c(c1)OCO2 (stereo unspecified)	i	-3	8	-20	3	-9	-1	-4
CC(=O)NC(C)(C)C1CC=C(C)/C(=N\O)C1 (stereo unspecified)	i	3	14	-17	-14	12	-7	-5
Cc1ccc(C)c(N)c1	nt	nt	nt	-2	-2	nt	-1	6
CSC1=N/C(=C/c2cccnc2)C(=O)N1Cc1ccccc1	i	-1	-5	-15	-5	-3	-1	0
CC(Sc1nncn1C)C(=O)Nc1nnc(-c2ccccc2)s1 (stereo unspecified)	i	-8	-8	-13	-11	-33	-5	0
Clc1ccc(OCCSc2ncccn2)cc1	i	4	4	nt	15	-187	7	-3
CN(CC(=O)NCc1ccncc1)S(=O)(=O)c1ccc(Cl)cc1	i	6	0	nt	3	12	1	4
CCOc1ccc(CNC(=O)C2CCN(c3nnc(C)c4c(C)n(-c5ccc(C)cc5)nc34)CC2)cc1	i	-32	-28	-15	5	0	-2	0
Cc1ccccc1N1CC(C(=O)Nc2nnc(SCCN3CCOCC3)s2)CC1=O (stereo unspecified)	i	-10	0	-12	5	nt	0	3
CCOc1ccc(N2C(=O)CC(N(C)Cc3ccccc3)C2=O)cc1 (stereo unspecified)	i	7	1	nt	0	2	6	6
COc1ccccc1C(=O)N/N=C/c1ccc2c(c1)OCO2	nt	9	-17	-2	14	-36	-1	1

Six compounds picked at random from the list so far:
SMILES	Rce1 inhib	PABP FP inh	eIF4H FP inh	Yeast UUG start	CSC inhib	HIV Env fusion	MT1-MMP act inh	MT1-MMP act inh RFP	others
Clc1ccc(OCCSc2ncccn2)cc1	i	4	4	nt	15	-187	7	-3
CCOc1ccc(N2C(=O)CC(N(C)Cc3ccccc3)C2=O)cc1 (stereo unspecified)	i	7	1	nt	0	2	6	6
COc1cc(OC)c2ccc(=O)oc2c1C(CC(=O)N1CCN(c2ccccc2)CC1)c1ccc2c(c1)OCO2 (stereo unspecified)	i	-3	8	-20	3	-9	-1	-4
COC(=O)c1cc2cc(Cl)ccc2nc1SC	i	-2	-14	nt	-8	11	-2	-1
Cc1ccccc1N1CC(C(=O)Nc2nnc(SCCN3CCOCC3)s2)CC1=O (stereo unspecified)	i	-10	0	-12	5	nt	0	3
CCOc1ccc(CNC(=O)C2CCN(c3nnc(C)c4c(C)n(-c5ccc(C)cc5)nc34)CC2)cc1	i	-32	-28	-15	5	0	-2	0

More records follow:
SMILES	Rce1 inhib	PABP FP inh	eIF4H FP inh	Yeast UUG start	CSC inhib	HIV Env fusion	MT1-MMP act inh	MT1-MMP act inh RFP	others
COc1ccccc1N1CCN(C(=O)c2sc3ncn(CC(=O)N4CCC(C)CC4)c(=O)c3c2C)CC1	i	7	-16	1	6	12	3	-3
O=C(CC1Nc2ccccc2NC1=O)NCC1COc2ccccc2O1 (stereo unspecified)	i	-3	-11	-4	-16	nt	1	-3
COc1ccc(NC(=O)OCCN2CCN(Cc3ccccc3)CCC2=O)cc1	i	-4	-11	-4	4	-4	4	0
Cc1ccc(S(=O)(=O)NNC(=S)Nc2cccc(F)c2)cc1	i	-3	-1	nt	-2	3	2	0
COC(=O)c1c(NC(=O)CN2CCC(C(N)=O)CC2)c2c(C)cccc2n1C	i	0	-2	-18	-14	nt	1	0
CC(C(=O)OCC(=O)Nc1cccc(S(=O)(=O)N(C)C)c1)N1C(=O)c2ccccc2C1=O (stereo unspecified)	i	5	8	-7	-19	1	-4	1
CC12CCC(=O)N1C(C(=O)Nc1cc(Cl)ccc1N1CCCC1)CS2 (stereo unspecified)	nt	nt	nt	3	-6	nt	16	-5
CN(C(=O)CN1C(=O)c2ccc([N+](=O)[O-])cc2C1=O)C1CCCCC1	nt	nt	nt	-8	-17	-30	-6	3
O=C(CN(C(=O)c1ccc(Cl)cc1Cl)N1C(=O)C2C3C=CC(C3)C2C1=O)c1ccc(F)cc1 (stereo unspecified)	i	nt	nt	-9	-19	36	-3	1
O=C(COC(=O)CCc1ccccc1)NNC(=O)c1ccccc1	nt	nt	nt	-22	-7	-16	2	0
